CSC inhib = blocks cancer stem cells. cancer stem cell-like cells viability, luminescence. inhibition, % at 7.5 µM. 300,000 tested, 1.1% active. AID 2717;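 active means mean at 75% or more and at least half the replicates too; inconclusive means mean and replicates disagree; tested in HMLE shEcad cells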;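 further: 0% = median of negative and 100% = median of positive control wells; the first replicate is given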
UUG fidelity = yeast start codon fidelity modulation; S. cerevisiae UUG-firefly luciferase reporter, luminescence/redox ratio; 350,000 tested, 0.13% active; activity score, % at 18.7 µM;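 active means replicate mean at a twofold rise or more, about +100% in these data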;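 further: firefly luciferase made from a UUG start codon reports start codon fidelity; reporter light over untreated wells divided by growth signal over untreated wells; some hits fall short of that in this replicate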
PABP FP inh = PABP-poly(A) binding inhibition | 290,000 tested, 1% active | AID 2014 | P11940 | PABP-poly(A) RNA binding, fluorescence polarization | inhibition, % at 35 µM;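 active means 50% or more with normal probe brightness, or confirmed in later tests; inconclusive means above 50% with abnormal brightness, or retests that disagree; inactive means below 50% or failed in later tests; about a fifth of its hits are not listed in these tables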;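 further: calls also rest on retests at 20 µM and on dose response follow-up; controls were probe without protein and protein plus probe with vehicle; some compounds called inactive have numbers as strong as hits; many hits fall short of the cut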
Target sequence (P11940 whole entry, looked up): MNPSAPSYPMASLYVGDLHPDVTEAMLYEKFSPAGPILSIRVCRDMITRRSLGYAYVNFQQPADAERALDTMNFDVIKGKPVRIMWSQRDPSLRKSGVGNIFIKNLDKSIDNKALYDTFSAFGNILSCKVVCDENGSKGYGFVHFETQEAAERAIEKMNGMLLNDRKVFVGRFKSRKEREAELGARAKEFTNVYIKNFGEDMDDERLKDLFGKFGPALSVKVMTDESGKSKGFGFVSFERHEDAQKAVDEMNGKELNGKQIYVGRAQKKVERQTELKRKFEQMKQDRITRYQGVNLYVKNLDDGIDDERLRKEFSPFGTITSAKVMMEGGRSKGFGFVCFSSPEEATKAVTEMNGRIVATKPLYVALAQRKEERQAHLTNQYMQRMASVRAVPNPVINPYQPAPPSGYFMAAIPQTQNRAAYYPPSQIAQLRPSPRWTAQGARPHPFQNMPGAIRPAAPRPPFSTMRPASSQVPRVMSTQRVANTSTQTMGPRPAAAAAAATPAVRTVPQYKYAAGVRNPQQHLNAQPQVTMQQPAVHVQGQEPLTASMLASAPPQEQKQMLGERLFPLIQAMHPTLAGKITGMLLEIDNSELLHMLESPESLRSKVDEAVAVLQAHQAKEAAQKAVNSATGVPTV
Rce1 inh = inhibitors of yeast Ras-converting enzyme; 290,000 tested, 0.27% active; yeast membranes, quenched prenylated peptide cleavage fluorescence; calls only; Q03530;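 active means fall in fluorescence gain of 50% or more versus controls, with final raw signal at or below 3038400; inconclusive means same 50% fall but final raw signal above 3038400; inactive means fall in fluorescence gain under 50%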;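 further: plate controls were neutral control wells for no effect and wells lacking membranes for full effect; tested at 10 µM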
Target sequence (Q03530 whole entry, looked up): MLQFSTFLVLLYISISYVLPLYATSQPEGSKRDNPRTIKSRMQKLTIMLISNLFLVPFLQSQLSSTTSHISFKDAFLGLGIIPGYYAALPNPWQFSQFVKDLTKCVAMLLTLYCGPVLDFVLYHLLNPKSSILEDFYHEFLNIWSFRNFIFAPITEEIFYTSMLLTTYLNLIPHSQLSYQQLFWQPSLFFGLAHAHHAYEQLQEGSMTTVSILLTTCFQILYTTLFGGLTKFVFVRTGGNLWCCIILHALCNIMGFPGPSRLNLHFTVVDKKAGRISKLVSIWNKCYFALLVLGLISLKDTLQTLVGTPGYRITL
Env fusion inh = HIV envelope-mediated fusion inhibition. HeLa-JRFL Env/CEM21 cell fusion, luciferase. inhibition, % at 12.3 µM. 360,000 tested, 1.1% active;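 active means mean replicate inhibition score of at least 50 and every replicate individually at or above 50; inconclusive means only one of the two criteria met; inactive means mean below 50 and not all replicates reaching 50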;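 further: 0% = plate neutral controls and 100% = maraviroc near 300 nM; one replicate is shown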
MT1-MMP act inh = inhibitors of human MT1-MMP activation. HT1080 RFP-PRO-GFP cells, GFP/RFP ratio fluorescence, overnight; percent of plate control window, DMSO zero. 360,000 tested, 0.061% active. P50281. GFP/RFP ratio change, % at 20 µM;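 active means GFP/RFP ratio change of at least 30% with cell ATP level not reduced by more than half and red fluorescence within 50% of control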; further: strong numbers were not always called active
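Assay system: HT1080 cells carrying an RFP-PRO-GFP reporter | Dosing: Single dose of 20 µM compound, 1% DMSO final | Incubation: Cells overnight before dosing, compound overnight, 37 °C, 5% CO2 | Evaluation: GFP/RFP fluorescence ratio | Control set: DMSO and RFP-L50D-GFP cell wells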
eIF4H inh = inhibitors of RNA binding by human eIF4H; Q15056; AID 2012; eIF4H fluorescence polarization binding assay; inhibition, % at 35 µM; 290,000 tested, 0.94% active;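 active means 50% or more with normal probe brightness, or confirmed in later tests; inconclusive means above 50% with abnormal brightness, or retests that disagree; inactive means below 50% or failed in later tests; about a fifth of its hits are not listed in these tables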;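 further: calls also rest on retests at 20 µM and on dose response follow-up; 0% = protein and probe with vehicle and 100% = probe without protein; strong numbers were not always called active; many hits fall short of the cut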
eIF4H inh retest = also measured in eIF4H inh; calls as there; inhibition, %; compound at 20 µM; confirmation average;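 mean of two retest wells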
PABP FP inh retest = also measured in PABP FP inh; calls as there; inhibition, %; compound at 20 µM; confirmation repeats;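 mean of two retest wells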
MT1-MMP act inh RFP = also measured in MT1-MMP act inh; calls as there; RFP signal change, %; measured here: RFP expression control read;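 0 = vehicle wells; hits needed this value within 50% of zero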
The depositor's hits bear a star; i = inactive; ? = inconclusive; . = not tested or not shown. This is a subset; rates above refer to the full screens.

SMILES	CSC inhib	UUG fidelity	PABP FP inh	Rce1 inh	Env fusion inh	MT1-MMP act inh	MT1-MMP act inh RFP	eIF4H inh	others
CCOc1cc(/C=C2/NC(=O)N(CC(=O)Nc3cccc(C)c3)C2=O)ccc1OC	-4	-5	5	i	.	1	4	-5
CCOC(=O)N1CCC(N(CCN(C)C)C(=S)Nc2cccc(Cl)c2)CC1	-11	-20	-6	i	2	2	-4	-6
COc1ccc(-n2ccnc2SCC(=O)NO)cc1	-1	.	-17	i	-10	-1	-2	2
CCOc1ccc(/C=C2\C(=O)c3ccccc3OC2c2ccccc2)cc1 (stereo unspecified)	72	-11	6	i	-14	-4	-8	-1
C=CCOc1c(Cl)cc(CNCCC)cc1Cl	.	-6	5	i	-78	4	2	9
O=C(NC12CC3CC(CC(C3)C1)C2)c1cccc([N+](=O)[O-])c1	8	-9	3	i	28	0	-1	-13
CCCC(=O)Nc1cc(C(=O)O)ccc1Sc1ccccc1	-5	.	6	.	21	3	4	-5
CN(CC(=O)Nc1ccccc1C(F)(F)F)C(=O)CSCc1ccc(Cl)c(Cl)c1	0	-14	.	i	22	-3	0	.
Cc1sc2ncnc(SCC(=O)NC(=O)NCc3ccco3)c2c1C	-4	-12	47*	i	.	-2	-6	82*	eIF4H inh retest=88*;PABP FP inh retest=51*
O=C(O)CC(=O)Nc1ccccc1	-21	-6	-3	i	.	2	8	-3
Nc1c(C(=O)O)cnn1-c1ccc([N+](=O)[O-])cc1	-15	-9	-17	i	-11	0	5	-9
O=c1[nH]cnc2c1nnn2Cc1ccccc1	-22	-11	-5	i	3	3	1	4
COC(=O)C1=NN(c2ccc(C)cc2)C2(S1)SC(C(C)=O)=C(C)N2c1ccccc1 (stereo unspecified)	17	-11	-3	i	-41	-8	-6	-5
CC1Cc2ccccc2N1C(=O)CSc1ccccn1 (stereo unspecified)	.	-14	.	.	-1	2	2	.
CS(=O)(=O)NCc1ccc(C(=O)NCCOc2ccccc2)cc1	-1	.	6	i	.	1	-2	4
CC1CC(C)(C)NC(=S)N1CC(=O)N1CCN(Cc2ccc3c(c2)OCO3)CC1 (stereo unspecified)	7	-18	17	.	1	3	2	-9
COc1ccc(-c2c(C)nn3c(N4CCOCC4)cc(C)nc23)cc1OC	-3	-14	-5	i	8	1	0	-17
O=C(Nc1ccc(N2CCCCC2)c(Cl)c1)c1ccc2c(c1)OCCO2	-9	3	4	i	34	0	-9	2
CSc1ncccc1C(=O)NNC(=O)c1ccc(NS(=O)(=O)c2cccs2)cc1	13	-5	.	i	2	-4	-3	.
C=C(C)Cn1c(-c2ccncc2)n[nH]c1=S	-11	.	15	i	?	1	2	-6
O=C(NCc1ccccc1)c1cc[n+](Cc2ccccc2)cc1	7	3	-10	i	-8	.	.	-3
CC(C)c1ccc(NC(=O)CSc2nc3ccsc3c(=O)n2CCC(=O)O)cc1	2	2	1	i	2	-7	-3	-8
COc1ccc(C(=O)O/N=C(\N)c2ccccc2Cl)cc1OC	-5	-5	6	i	-51	-5	-12	-2
COC(=O)c1ccc(Cl)c(NC(=O)Cc2ccccc2[N+](=O)[O-])c1	-8	.	11	i	-26	0	-4	-3
COC(=O)/C=c1\sc2n(c1=O)C(C)=CC(C)(C)N=2	-12	3	12	i	-78	4	2	18

Fetched by compound from the list above, 2 records:
SMILES	CSC inhib	UUG fidelity	PABP FP inh	Rce1 inh	Env fusion inh	MT1-MMP act inh	MT1-MMP act inh RFP	eIF4H inh	others
COc1ccc(-c2c(C)nn3c(N4CCOCC4)cc(C)nc23)cc1OC	-3	-14	-5	i	8	1	0	-17
COC(=O)c1ccc(Cl)c(NC(=O)Cc2ccccc2[N+](=O)[O-])c1	-8	.	11	i	-26	0	-4	-3

(further entries)
SMILES	CSC inhib	UUG fidelity	PABP FP inh	Rce1 inh	Env fusion inh	MT1-MMP act inh	MT1-MMP act inh RFP	eIF4H inh	others
COC(=O)Nc1ccc(S(=O)(=O)N2CCC(C(=O)N3CCC(C)CC3)CC2)cc1	-9	.	2	i	-1	-4	-2	4
CN(C)c1ccc(C=C(c2nnnn2-c2ccccc2)c2nnnn2-c2ccccc2)cc1	4	.	-7	i	-49	-130	-4	?
COc1cc2ncnc(NCc3ccc(F)cc3)c2cc1OC	42	-8	11	i	12	6	0	-11
COc1ccc(C(=O)N2CCOC2CNC(=O)C(=O)NCc2ccco2)cc1 (stereo unspecified)	-9	.	-6	i	8	1	2	14
Cc1ccc([C@@H]2[C@@H]3C(=O)N(c4ccccc4)C(=O)[C@@H]3[C@]3(C)C(=O)N(Cc4ccccc4)CC(=O)N23)o1	17	-12	-3	i	25	0	5	7
O=C(CCc1ccccc1)OCC(=O)c1ccc([N+](=O)[O-])cc1	-2	4	-1	i	8	-6	2	7
COc1ccc(C(CNC(=O)C(Cc2ccccc2)NC(N)=O)N(C)C)cc1 (stereo unspecified)	2	-6	-4	i	-4	0	-1	6
CCOc1ccccc1Nc1cc(C)nc2ccccc12	.	-3	.	.	6	10	5	.
Cc1ncc(CO)c(/C=N/N=C/c2ccccc2O)c1O	12	.	-2	i	.	1	7	-5
CCN1C(=O)CC(N2CCC(c3nc4ccccc4[nH]3)CC2)C1=O (stereo unspecified)	-7	-25	-9	i	-5	-8	-2	-15
O=C(NCCc1ccccc1)C1c2ccccc2C(=O)N1C1CC1 (stereo unspecified)	-13	6	16	i	-46	-2	1	1
CC(=O)Nc1ccc(C(=O)COC(=O)c2cc(C)oc2C)c(F)c1	-15	-12	.	.	.	9	-1	.
CCOc1ccccc1OC(=O)CN1C(=O)c2ccccc2C1=O	.	-7	6	i	9	-5	-2	-1
CCc1nc2nc(C)cc(Nc3cccc(C(F)(F)F)c3)n2n1	-7	-3	7	i	.	-2	-1	0
CC(C)(C)CN1C(=O)C(=O)NC[C@H]1Cc1ccc(O)cc1	-3	-2	2	i	-13	7	6	-15
CCOc1ccc(CCNC(=O)C2CCCN(S(=O)(=O)N3CCOCC3)C2)cc1OCC (stereo unspecified)	.	3	-2	i	-18	-2	2	-1
CCOC(=O)C1=C(C)OC(N)=C(C(=O)OCC)C1c1ccncc1 (stereo unspecified)	-2	-9	2	i	.	-9	-6	4
CC(C)CNS(=O)(=O)c1ccc(C(=O)Nc2ccc3c(c2)OCO3)cc1	-6	-5	-10	i	15	2	2	-2
COc1cccc(CN2CCN(C(=O)c3cccs3)CC2)c1OC	15	-12	6	i	.	0	2	-6
O=C(CN1CCCCC1)N1CCN(C(=O)CN2CCCCC2)CC1	.	.	3	i	.	.	.	-7
Nc1cc(=O)[nH]c(SCC(=O)Nc2ccc([N+](=O)[O-])cc2)n1	.	-24	-9	i	9	5	-2	-2
Cc1ccc(C)c(-c2cc(C(=O)NC3CC3)c3ccccc3n2)c1	3	-8	4	i	.	3	2	-11
NS(=O)(=O)c1ccc(N/C=C\C(=O)c2ccncc2)cc1	2	.	9	i	13	0	2	4
O=C(c1ccc(CS(=O)Cc2ccc(Cl)cc2)o1)N1CCN(c2ccc(F)cc2)CC1 (stereo unspecified)	8	0	6	i	22	5	-6	-3
COC(=O)c1ccc(/C=C(\C#N)C(=O)NC(C)c2ccccc2)cc1 (stereo unspecified)	9	.	-8	.	-73	-16	-23	0
(list continues)
SMILES	CSC inhib	UUG fidelity	PABP FP inh	Rce1 inh	Env fusion inh	MT1-MMP act inh	MT1-MMP act inh RFP	eIF4H inh	others
Oc1c(Cl)cc(Cl)cc1C=Nc1ccc2c(c1)OCCO2	-7	-23	51*	i	23	-1	-1	16*	eIF4H inh retest=108*;PABP FP inh retest=92*
COc1ccc(-c2cc(C(F)(F)F)n3nc(C(=O)NCc4ccco4)cc3n2)cc1OC	-1	3	-1	i	.	7	1	1
CN(C)S(=O)(=O)Nc1ccc(NS(=O)(=O)N(C)C)c(S(=O)(=O)c2ccccc2)c1	16	-1	-2	i	-103	2	-1	4
CCCCc1ccc(N2C(=NC(=O)C3CCCO3)SC3CS(=O)(=O)CC32)cc1 (stereo unspecified)	-4	-4	.	i	-4	-1	2	.
COC(=O)c1sccc1NC(=O)CSCCc1ccncc1	-7	.	2	i	3	2	1	-10
COC(=O)C[C@H](NC(=O)Cn1cnc2c(OCc3ccccc3)ncnc21)C(=O)OC	.	-13	.	.	10	3	6	.
O=C(NNC(=O)c1cccc2ccccc12)c1ccc2c(c1)OCO2	-4	2	-1	i	-31	0	-2	-4
CCCn1cnc2cc(NCc3cccc(OC)c3O)ccc21	-16	-2	2	i	5	7	5	1
C[C@@H]1CN([C@H](C)CO)C(=O)c2c(c3ccccc3n2C)-c2ccccc2CO[C@H]1CN(C)C(=O)Cc1ccccc1	.	-2	.	.	-32	4	-2	.
CCN(C[C@H]1N[C@@](Cc2ccccc2)(C(=O)OC)[C@H]2C(=O)N(C)C(=O)[C@@H]12)C(=O)COc1ccccc1	.	-9	.	.	-72	1	1	.
Cc1nc2cc(C)c(C)cc2s1	.	.	1	i	10	-2	1	10

Arranged by heavy-atom count (high to low): some entries from above.
SMILES	CSC inhib	UUG fidelity	PABP FP inh	Rce1 inh	Env fusion inh	MT1-MMP act inh	MT1-MMP act inh RFP	eIF4H inh	others
C[C@@H]1CN([C@H](C)CO)C(=O)c2c(c3ccccc3n2C)-c2ccccc2CO[C@H]1CN(C)C(=O)Cc1ccccc1	.	-2	.	.	-32	4	-2	.
CCN(C[C@H]1N[C@@](Cc2ccccc2)(C(=O)OC)[C@H]2C(=O)N(C)C(=O)[C@@H]12)C(=O)COc1ccccc1	.	-9	.	.	-72	1	1	.
COc1ccc(-c2cc(C(F)(F)F)n3nc(C(=O)NCc4ccco4)cc3n2)cc1OC	-1	3	-1	i	.	7	1	1
COC(=O)C[C@H](NC(=O)Cn1cnc2c(OCc3ccccc3)ncnc21)C(=O)OC	.	-13	.	.	10	3	6	.
CN(C)S(=O)(=O)Nc1ccc(NS(=O)(=O)N(C)C)c(S(=O)(=O)c2ccccc2)c1	16	-1	-2	i	-103	2	-1	4
CCCCc1ccc(N2C(=NC(=O)C3CCCO3)SC3CS(=O)(=O)CC32)cc1 (stereo unspecified)	-4	-4	.	i	-4	-1	2	.
COC(=O)c1ccc(/C=C(\C#N)C(=O)NC(C)c2ccccc2)cc1 (stereo unspecified)	9	.	-8	.	-73	-16	-23	0
Cc1ccc(C)c(-c2cc(C(=O)NC3CC3)c3ccccc3n2)c1	3	-8	4	i	.	3	2	-11
CCCn1cnc2cc(NCc3cccc(OC)c3O)ccc21	-16	-2	2	i	5	7	5	1
Nc1cc(=O)[nH]c(SCC(=O)Nc2ccc([N+](=O)[O-])cc2)n1	.	-24	-9	i	9	5	-2	-2
Oc1c(Cl)cc(Cl)cc1C=Nc1ccc2c(c1)OCCO2	-7	-23	51*	i	23	-1	-1	16*	eIF4H inh retest=108*;PABP FP inh retest=92*
Cc1nc2cc(C)c(C)cc2s1	.	.	1	i	10	-2	1	10

Screening results from PubChem.
